Compound activity (PubChem)
CHOP UPR activ = activators of apoptotic CHOP UPR arm, primary screen, cell-based, CHO-CHOP luciferase reporter, luminescence, uHTS; UPR activation; percent of tunicamycin response over DMSO baseline; activation, % at 10 µM; 330,000 compounds, 0.34% hits; AID 449763, 2010;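 active means at 10 µM dose, activation of 40% or more, normalized to positive control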;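 further: 100% = tunicamycin at 10 µg/mL and 0% = DMSO alone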
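System: CHO CHOP reporter cells. Amount: 500 cells per well. Buffer or medium: F12 medium, 10% FBS. Compound dosing: one dose, 10 µM in 0.5% DMSO. Incubation: 6 h compound exposure at 37 °C after overnight seeding. Technique: Steady-Glo luciferase luminescence. Benchmarks: tunicamycin and DMSO controls.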
Gli-Sufu block = Gli-Sufu pathway antagonists, primary screen, luciferase luminescence, Sufu-KO-LIGHT cells, uHTS; Sufu-KO-LIGHT fibroblasts, Gli luciferase reporter luminescence; inhibition, % at 5 µM; 340,000 compounds, 0.74% hits;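 active means inhibition above about 55%, limit read from the data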;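 further: 0% = DMSO-treated cells and 100% = wells with medium but no cells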
EBI2 block = EBI2 receptor antagonists, beta-arrestin recruitment, primary screen, cell-based, luminescence, 7a,25-OHC stimulation, uHTS | 7a,25-OHC stimulated | 360,000 compounds, 0.81% hits | inhibition, % at 5 µM | AID 651636, 2012 | G-protein coupled receptor 183 (Homo sapiens), P32249; in the data active means inhibition above about 38%;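 further: enzyme fragment complementation signal reports receptor beta-arrestin coupling in cells; 0% = agonist plus DMSO wells and 100% = wells without agonist; some results beyond the cut were filed as inactive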
Target sequence (P32249 whole entry, looked up, the tested form may be a part): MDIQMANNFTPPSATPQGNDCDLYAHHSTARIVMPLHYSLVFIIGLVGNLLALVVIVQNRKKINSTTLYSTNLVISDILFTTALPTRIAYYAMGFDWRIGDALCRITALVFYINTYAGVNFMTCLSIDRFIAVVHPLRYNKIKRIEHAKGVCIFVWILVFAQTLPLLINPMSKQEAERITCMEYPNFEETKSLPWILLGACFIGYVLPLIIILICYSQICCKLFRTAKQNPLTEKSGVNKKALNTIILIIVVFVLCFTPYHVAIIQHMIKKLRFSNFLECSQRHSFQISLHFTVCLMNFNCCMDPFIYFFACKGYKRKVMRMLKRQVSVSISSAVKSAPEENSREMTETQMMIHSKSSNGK
CXCR6 inh = CXCR6 receptor inhibitors, primary screen, cell-based, beta-arrestin, luminescence, CHO-K1 PathHunter, 1536-well. C-X-C chemokine receptor type 6 (Homo sapiens), O00574. inhibition, % at 20 µM. 360,000 compounds, 0.36% hits. AID 602244, 2012; in the data active means inhibition above about 34%, passing the limit was not always enough;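 further: antagonist mode with CXCL16 agonist at 10 nM final; 0% = 10 nM CXCL16 with DMSO and 100% = unstimulated wells without agonist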
CCR6 antagonist = CCR6 receptor antagonists, primary screen, cell-based, CHO-K1, luminescence, beta-arrestin, uHTS | C-C chemokine receptor type 6 (Homo sapiens), P51684 | CHO-K1 CCR6 PathHunter beta-arrestin, CCL20-stimulated | inhibition, % at 20 µM | 340,000 compounds, 0.49% hits;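 active means compounds whose inhibition of the agonist-driven luminescence signal at 20 µM reaches about 50%, limit read from the data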;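 further: cells stimulated with CCL20 at 14 nM final; plate controls were DMSO with CCL20 for no effect and DMSO without agonist for full effect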
Target sequence (P51684 whole entry, looked up): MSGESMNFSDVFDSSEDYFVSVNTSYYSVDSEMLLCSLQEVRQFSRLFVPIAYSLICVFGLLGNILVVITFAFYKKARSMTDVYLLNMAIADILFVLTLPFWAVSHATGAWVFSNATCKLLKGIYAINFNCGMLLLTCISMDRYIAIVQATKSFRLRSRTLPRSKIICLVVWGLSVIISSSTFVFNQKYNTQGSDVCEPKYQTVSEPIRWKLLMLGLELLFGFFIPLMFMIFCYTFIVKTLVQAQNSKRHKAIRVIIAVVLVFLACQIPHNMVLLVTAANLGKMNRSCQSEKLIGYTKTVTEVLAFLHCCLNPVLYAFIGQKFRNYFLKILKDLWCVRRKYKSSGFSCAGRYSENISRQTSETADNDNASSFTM
XBP1 UPR activ = activators of adaptive XBP1 UPR arm, primary screen, cell-based, CHO-XBP1 luciferase reporter, luminescence, uHTS; 330,000 compounds, 0.33% hits; IRE1-XBP1 UPR activation; percent of tunicamycin response, DMSO as zero; activation, % at 20 µM;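 active means versus positive control, 20 µM dose yields 30% or more activation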;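 further: 100% = tunicamycin at 10 µg/mL and 0% = DMSO only wells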
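Material: CHO cell line with stable XBP1 luciferase reporter; schedule: 16-18 h cell attachment at 37 °C, then 6 h compound exposure; signal: glow luminescence from Steady-Glo reagent; medium: serum-containing F12 medium, 10% FBS; benchmarks: tunicamycin 10 µg/mL and vehicle-only wells; read-out: percent activation relative to tunicamycin reference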
The depositor's hits bear a star; nt = no result given. These rows are one share of the data; rates above refer to the full screens.

SMILES	CHOP UPR activ	Gli-Sufu block	EBI2 block	CXCR6 inh	CCR6 antagonist	XBP1 UPR activ
CC[C@]1(O)CC2CN(CCc3c([nH]c4ccccc34)[C@@](C(=O)OC)(c3cc4c(cc3OC)N(C=O)[C@H]3[C@@](O)(C(=O)OC)[C@H](OC(C)=O)[C@]5(CC)C=CCN6CC[C@]43[C@@H]65)C2)C1 (stereo partly drawn)	0.1	52	-12	-2	3	10
COc1cc(NS(=O)(=O)c2ccc(N)cc2)ncn1	2.9	nt	nt	nt	nt	-10
CCc1ccc(NC(=O)c2cnc(N3CCN(c4ccccn4)CC3)c3ccccc23)cc1	9.5	29	-13	-4	11	-2
CCN(CC)CCOC(=O)C(Cc1cccc2ccccc12)CC1CCCO1 (stereo not drawn)	0.9	3	-2	-2	8	-1
COc1ccc(-c2cc3cc(F)ccc3cn2)cc1	2.8	-118	-4	-2	-4	-4
COC(=O)c1ccc(NC(=O)Nc2ccc([N+](=O)[O-])cc2)cc1	-0.5	3	-3	-7	10	-1
CCOc1ccc(NC(C)=O)cc1	-0.7	-2	-5	-4	6	-5
Cc1nn(Cc2ccccc2Cl)c(C)c1NC(=O)NC12CC3CC(CC(C3)C1)C2	-1.1	-2	12	0	21	-2
O=C1CCc2ccccc2O1	-0.2	4	-5	2	-2	1
CCOC(=O)OC(C)OC1=C(C(=O)Nc2ccccn2)N(C)S(=O)(=O)c2ccccc21 (stereo not drawn)	-1.2	nt	nt	nt	nt	-2
Cc1ccnc2c1NC(=O)c1cccnc1N2C1CC1	-1.8	2	-2	-1	8	-5
Cc1ccc(N)c([N+](=O)[O-])c1	1.1	2	0	5	8	2

Looked up one by one from the list above (two):
SMILES	CHOP UPR activ	Gli-Sufu block	EBI2 block	CXCR6 inh	CCR6 antagonist	XBP1 UPR activ
Cc1nn(Cc2ccccc2Cl)c(C)c1NC(=O)NC12CC3CC(CC(C3)C1)C2	-1.1	-2	12	0	21	-2
COc1cc(NS(=O)(=O)c2ccc(N)cc2)ncn1	2.9	nt	nt	nt	nt	-10

Next part:
SMILES	CHOP UPR activ	Gli-Sufu block	EBI2 block	CXCR6 inh	CCR6 antagonist	XBP1 UPR activ
CCCCN1CCCCC1C(=O)Nc1c(C)cccc1C (stereo not drawn)	-1.5	4	0	5	4	-5
Cc1ccccc1C=O	6.7	9	-6	-1	-7	-1
CC/C(=C(/CC)c1ccc(O)cc1)c1ccc(O)cc1	-1.4	-16	32	-2	3	-3
O=C(CSc1ccccc1)N1CCc2ccccc21	8.2	-74	-7	-7	10	3
Cc1ccc(C(=O)c2ccc(CC(=O)O)n2C)cc1	-0.5	-16	1	4	-6	-8
O=C1CC2(CCCC2)CC(=O)N1CCCCN1CCN(c2ncccn2)CC1	-1.8	3	-6	-6	-2	-7
COc1cc2c(cc1OC)-c1cc3ccc(OC)c(OC)c3c[n+]1CC2	-0.9	-4	1	-6	10	-7
CCC1=C(OC(=O)c2ccccc2)C(C)(C)C(c2ccccc2)OC1=O (stereo not drawn)	-0.4	26	19	1	16	0
OC[C@H]1O[C@H](OCCc2ccc(O)cc2)[C@H](O)[C@@H](O)[C@@H]1O	-1.7	-14	-15	6	1	-5
Cc1cccc(O)c1C	-2.6	-10	0	6	-9	-1
O=C(O)c1cccc(C(=O)O)c1	-2.6	4	-2	2	-8	1
CCCCc1oc2ccccc2c1C(=O)c1cc(I)c(OCCN(CC)CC)c(I)c1	3.5	0	1	12	3	-6
Cc1cc(C(=O)COC(=O)c2ccc(F)cc2)c(C)n1C	-3.9	-88	1	4	15	-8
CCc1cccc2c3c([nH]c12)C(CC)(CC(=O)O)OCC3 (stereo not drawn)	-0.6	-4	-2	-8	1	-10
CCN(CC)C(=O)c1cccc(C)c1	-0.7	0	2	7	-4	-8
CNCCc1ccccn1	-0.7	-2	-6	0	-5	-7
CC(=O)OCC(=O)[C@@]1(O)CC[C@H]2[C@@H]3CCC4=CC(=O)CC[C@]4(C)[C@H]3C(=O)C[C@@]21C	-0.5	7	-3	2	1	-9
O=C(CSc1nc2ccccc2s1)c1ccc(O)cc1O	5.1	-8	-3	-3	2	-3
O=c1c(O)c(-c2ccc(O)c(O)c2)oc2cc(O)cc(O)c12	6.3	-1	-9	-7	13	-1
CCCC1O[C@@H]2C[C@H]3[C@@H]4CCC5=CC(=O)C=C[C@]5(C)[C@H]4[C@@H](O)C[C@]3(C)[C@]2(C(=O)CO)O1 (stereo partly drawn)	-1.6	9	1	-6	4	-4
O=C(O)Cc1c[nH]c2ccccc12	-1.5	6	-5	-9	5	-1
CC(=O)[C@@]1(O)CC[C@H]2[C@@H]3C[C@H](C)C4=CC(=O)C=C[C@]4(C)[C@@]3(F)[C@@H](O)C[C@@]21C	0.1	9	2	1	-1	-6
CN(C)CCN(Cc1ccc(Cl)cc1)c1ccccn1	1.8	0	9	7	4	-6

Arranged by molecular weight (high to low): part of the list above
SMILES	CHOP UPR activ	Gli-Sufu block	EBI2 block	CXCR6 inh	CCR6 antagonist	XBP1 UPR activ
CCCCc1oc2ccccc2c1C(=O)c1cc(I)c(OCCN(CC)CC)c(I)c1	3.5	0	1	12	3	-6
CCCC1O[C@@H]2C[C@H]3[C@@H]4CCC5=CC(=O)C=C[C@]5(C)[C@H]4[C@@H](O)C[C@]3(C)[C@]2(C(=O)CO)O1 (stereo partly drawn)	-1.6	9	1	-6	4	-4
CC(=O)OCC(=O)[C@@]1(O)CC[C@H]2[C@@H]3CCC4=CC(=O)CC[C@]4(C)[C@H]3C(=O)C[C@@]21C	-0.5	7	-3	2	1	-9
CC(=O)[C@@]1(O)CC[C@H]2[C@@H]3C[C@H](C)C4=CC(=O)C=C[C@]4(C)[C@@]3(F)[C@@H](O)C[C@@]21C	0.1	9	2	1	-1	-6
COc1cc2c(cc1OC)-c1cc3ccc(OC)c(OC)c3c[n+]1CC2	-0.9	-4	1	-6	10	-7
O=C(CSc1nc2ccccc2s1)c1ccc(O)cc1O	5.1	-8	-3	-3	2	-3
O=c1c(O)c(-c2ccc(O)c(O)c2)oc2cc(O)cc(O)c12	6.3	-1	-9	-7	13	-1
OC[C@H]1O[C@H](OCCc2ccc(O)cc2)[C@H](O)[C@@H](O)[C@@H]1O	-1.7	-14	-15	6	1	-5
CN(C)CCN(Cc1ccc(Cl)cc1)c1ccccn1	1.8	0	9	7	4	-6
Cc1cc(C(=O)COC(=O)c2ccc(F)cc2)c(C)n1C	-3.9	-88	1	4	15	-8
CCc1cccc2c3c([nH]c12)C(CC)(CC(=O)O)OCC3 (stereo not drawn)	-0.6	-4	-2	-8	1	-10
CCN(CC)C(=O)c1cccc(C)c1	-0.7	0	2	7	-4	-8
O=C(O)Cc1c[nH]c2ccccc12	-1.5	6	-5	-9	5	-1
O=C(O)c1cccc(C(=O)O)c1	-2.6	4	-2	2	-8	1
CNCCc1ccccn1	-0.7	-2	-6	0	-5	-7
